Screening data as filed in PubChem.
GIV Gai3 FP: inhibitors of GIV peptide binding to Galpha-i3, primary screen, biochemical, fluorescence polarization, FITC-GIV GBA peptide, rat Galphai3 | Guanine nucleotide-binding protein G(i) subunit alpha-3 (Rattus norvegicus), P08753 | 90 min; active compounds read low; scaled: aluminum fluoride 0%, vehicle 100% | percent of control (FP), % (test concentration not listed) | hit rate 0.42% among 210,000 | AID 1224905, 2016;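 active means replicate mean at 85% of control or lower, very high polarization wells dropped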;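 further: lower values mean more displacement of the GIV peptide from Galpha-i3; wells of about 15 µL received 100 nL stock; the first replicate is given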
Target sequence (P08753 whole entry, looked up): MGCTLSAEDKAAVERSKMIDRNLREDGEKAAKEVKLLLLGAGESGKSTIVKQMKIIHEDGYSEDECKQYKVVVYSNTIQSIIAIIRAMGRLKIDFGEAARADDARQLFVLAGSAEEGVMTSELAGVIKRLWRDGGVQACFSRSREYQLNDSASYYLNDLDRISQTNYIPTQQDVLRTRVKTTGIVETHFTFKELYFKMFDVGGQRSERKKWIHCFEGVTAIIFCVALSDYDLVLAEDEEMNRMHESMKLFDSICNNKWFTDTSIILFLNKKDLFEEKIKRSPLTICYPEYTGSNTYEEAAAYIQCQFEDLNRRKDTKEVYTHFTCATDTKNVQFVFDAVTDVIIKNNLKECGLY
HCMV NEC inh: inhibitors of HCMV UL50-UL53 interaction, biochemical, HTRF. normalized percent inhibition. HCMV UL50-UL53 nuclear egress complex (human cytomegalovirus). inhibition, % (test concentration not listed). hit rate 0.15% among 190,000;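 active means both replicates at 50% or more, plus weaker picks with an unusually low signal ratio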;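 further: stock transfer was 100 nL into about 20 µL; 0% = negative control wells and 100% = wells with untagged competitor protein; inactives centre near -12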
Sa growth inh: S. aureus growth inhibition at 42 and 30 °C, primary screen, LtaS inhibitor project, RN4220, two temperatures; hit rate 0.53% among 170,000; AID 720641, 2013; relative growth, % (concentration not given with the values); OD600, 20 h, 42 °C; active compounds read low;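 active means growth at 42 °C up to 50% and 20 or more points under that at 30 °C, or under 10% at both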;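 further: 300 nL library stock went into each well; scaled to the means of positive and negative controls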
Sa growth inh second temp: also measured in Sa growth inh; calls as there; relative growth, %; measured here: growth at 30 °C;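 optical density after 20 h as mean of two plates; 100% = untreated growth and lower means inhibition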
* = called active by the depositor; / = not tested or not shown.

Screens by letter – A = GIV Gai3 FP; B = HCMV NEC inh; C = Sa growth inh; D = Sa growth inh second temp
> Cc1c(Cl)cccc1NC(=O)N1CCN(C(=O)c2nsc3ccccc23)CC1
  A = 109.0	B = /	C = 99.8	D = 98.4

> COC(=O)CN(C)S(=O)(=O)c1ccc(Br)cc1
  A = 106.0	B = 12.2	C = 93.8	D = 104.8

> CC(Sc1nnc2c(Cl)cc(Cl)cn12)C(=O)NCc1ccco1 (stereo not drawn)
  A = /	B = -65.6	C = 97.6	D = 70.7

> COc1ccc(CNC(=O)Cn2ccn3nc(-c4ccc5c(c4)OCO5)cc3c2=O)cc1OC
  A = 102.7	B = -29.6	C = /	D = /

> CC(=O)Oc1ccc2occ(C(=O)CCN(C)C)c2c1
  A = /	B = -5.0	C = 93.6	D = 85.6

> COc1ccc(CCNC(=O)C2(C)CCC(=O)N2CCC(C)C)cc1OC (stereo not drawn)
  A = 100.2	B = /	C = 89.4	D = 83.6

> C=CCn1c(C)csc1=Nc1ccc(C(=O)OCC)cc1
  A = /	B = -12.8	C = 86.4	D = 90.3

> CC1=C(c2ccc(C)c(C)c2)S(=O)(=O)N=C1N1CCN(c2cccc(C(F)(F)F)c2)CC1
  A = 98.5	B = -21.0	C = 109.5	D = 95.1

> COc1ccc2oc(=O)cc(CN3CCN(C(=O)c4ccccc4F)CC3)c2c1
  A = 102.8	B = -20.2	C = 104.6	D = 80.8

> Cc1ccc(NC(=O)c2cc(C)oc2C)c(Br)c1
  A = /	B = -12.6	C = 101.0	D = 92.9

> CCOC(=O)CN1C(=O)S/C(=C\c2ccccc2OCc2ccccc2F)C1=O
  A = /	B = -24.6	C = 90.1	D = 87.7

> COc1ccc(C2c3c(n(C)c4ccccc34)C(=O)N2CC(=O)NCCc2cccc(OC)c2)cc1 (stereo not drawn)
  A = 97.4	B = -7.8	C = /	D = /

> CC(C)(C)c1ccc(S(=O)(=O)N2CCc3nc(N4CCCCC4)ncc3C2)cc1
  A = 109.2	B = -11.2	C = /	D = /

> Cc1ccc(C)c(NC(=O)Cn2c(=O)n(CC3CCCO3)c(=O)c3ccccc32)c1 (stereo not drawn)
  A = 103.9	B = 0.8	C = 97.6	D = 100.9

> CC(=O)N1c2ccccc2CC1C(=O)N1CCN(c2ccccn2)CC1 (stereo not drawn)
  A = 97.8	B = -8.5	C = /	D = /

> CCOC(=O)c1c(C)[nH]c(CCC(=O)NCc2ccc(N(C)C)cc2)c1C
  A = 102.7	B = /	C = 100.3	D = 89.9

> O=C1CN(C(=O)CSC2=Nc3ccccc3CS2)c2ccccc2N1
  A = /	B = 13.9	C = 121.9	D = 92.3

> Cc1nn(CCCC(=O)Nc2cccc(C(F)(F)F)c2)c(=O)c2nn(-c3ccccc3)c(C)c12
  A = 100.5	B = /	C = 102.4	D = 92.9

> COc1ccc(-c2nnc3c4ccccc4c(C)nn23)cc1S(=O)(=O)NC(C)(C)C
  A = 104.2	B = /	C = 76.2	D = 83.5

> CCc1ccc(S(=O)(=O)c2cn(CC)c3ccccc3c2=O)cc1
  A = 105.9	B = /	C = 81.2	D = 65.4

> CC1(NC(=S)Nc2ccc(O)cc2)CCS(=O)(=O)C1 (stereo not drawn)
  A = 101.8	B = /	C = 97.7	D = 100.9

> Cc1c(CCC(=O)NCc2ccc3c(c2)OCO3)c(=O)oc2cc3occ(C(C)(C)C)c3cc12
  A = 101.7	B = -14.4	C = 99.3	D = 81.4

> CCC(C)(C(=O)NC1CCCC1)N(C(=O)Cc1cccs1)c1c(C)n(C)n(-c2ccccc2)c1=O (stereo not drawn)
  A = 99.7	B = -0.2	C = 110.3	D = 92.6

> CC(C)(C)C(=O)/C=C(/N)c1ccncc1
  A = 100.2	B = -37.1	C = 99.1	D = 95.1

> CC(C)NC(=O)c1ccc2c(c1)nnn2C
  A = 100.8	B = -13.6	C = 96.8	D = 71.7

> CCOC(=O)c1ccc(N2CCN(c3cccc(OC)c3)CC2)c(NC(=O)Nc2ccc(OCC)cc2)c1
  A = 103.2	B = /	C = 119.2	D = 86.2

> CCc1c(C)nc2nncn2c1Nc1cccc(C)c1
  A = 102.4	B = -23.7	C = 107.1	D = 87.2

> CCOc1ccc(C2CCCN2Cc2nc(N)nc(Nc3ccccc3)n2)cc1 (stereo not drawn)
  A = /	B = -3.1	C = 108.3	D = 87.4

> O=c1[nH]c(SCc2cc3c(cc2Cl)OCO3)nc2nc[nH]c12
  A = 109.7	B = -17.2	C = /	D = /

> Cc1ccc(C2(C#N)C(=O)Nc3ccccc32)c(C)c1 (stereo not drawn)
  A = /	B = 6.8	C = 96.4	D = 97.2

> Cc1nc(C(F)(F)F)ccc1C(=O)Nc1ccccc1-c1ccccc1
  A = 97.5	B = -29.2	C = 107.9	D = 90.6

> CCOC(=O)c1c(C)oc2nc(C)nc(NCc3ccccc3OCC)c12
  A = 111.6	B = /	C = 109.6	D = 96.8

> Cc1ccc(S(=O)(=O)Nc2ccc(N3CCn4c(nc5ccccc54)C3)cc2C)cc1
  A = 98.6	B = -30.5	C = /	D = /

> CC1(C)Cc2c(C#N)c(NC3CCCCC3)nc(-c3ccco3)c2CO1
  A = 108.9	B = /	C = 85.5	D = 85.0

> FC(F)(F)c1ccccc1-n1nnnc1-c1ccc(Cl)cc1Cl
  A = 104.0	B = 1.4	C = 105.0	D = 98.4

> Cc1cccc(Cc2c(C)c3c(C)[nH]nc3oc2=O)c1
  A = /	B = -13.2	C = 83.7	D = 80.8

> CCOc1ccc(N2C(=O)N(Cc3c(F)cccc3Cl)c3ccccc3S2(=O)=O)cc1
  A = 102.4	B = /	C = 106.3	D = 101.7

> Cc1onc(-c2ccccc2)c1C(=O)N[C@@H]1C(=O)N2[C@@H]1SC(C)(C)[C@@H]2C(=O)O
  A = 100.9	B = -29.2	C = -1.3*	D = -0.6*

> Cn1c(/N=C/c2c(O)ccc3ccccc23)nc2ccc(Br)cc21
  A = 23.3*	B = 19.6	C = 124.9	D = 98.5

> CN(C)c1ccc(/C=C2/C(=O)c3ccc(C(=O)O)cc3C2=O)cc1
  A = -72.6*	B = -76.8	C = 92.5	D = 90.3

> C/C(=N\NC(=O)Cc1c(C)[nH]c(=O)[nH]c1=O)c1ccc(Br)cc1
  A = 105.9	B = -1.9	C = 92.4	D = 85.8

> COc1ccc(-c2noc(CN3CCC(C(=O)Nc4cccc(Cl)c4)CC3)n2)cc1OC
  A = 105.1	B = 1.6	C = /	D = /

> CC(C)CCNC1=NCCCCC1
  A = /	B = -9.9	C = 98.5	D = 92.7

> CC(=O)c1cccc(NC(=O)Cn2cc(C(=O)c3cccc(Cl)c3)c(=O)c3ccc(C)nc32)c1
  A = 124.2	B = -18.0	C = 94.8	D = 89.4

> O=C(CN1C(=O)C2CCCCN2c2ccc(C(=O)N3CCCC3)cc21)NCC1CCCO1 (stereo not drawn)
  A = 103.8	B = -15.3	C = /	D = /

Continued:
SMILES | GIV Gai3 FP | HCMV NEC inh | Sa growth inh | Sa growth inh second temp
CCOc1cc(C2Nc3ccccc3-c3nnc(SCC)nc3O2)ccc1O (stereo not drawn) | 108.6 | -98.7 | / | /
CCCNC(=O)Nc1cccc(-c2noc(-c3cccc(Br)c3)n2)c1 | 103.7 | -0.3 | / | /
O=C(Cc1csc(NC(=O)Nc2ccccc2)n1)NC1CCCC1 | 106.5 | -8.0 | / | /
NC(=O)COC(=O)c1oc2ccccc2c1COc1ccccc1 | / | -19.4 | 110.1 | 99.4
CCSc1nnc2c(n1)OC(C(=O)c1ccccc1)Nc1ccccc1-2 (stereo not drawn) | / | -37.9 | 56.9 | 30.3
Cc1nnc(N2CCCC(C(=O)N3CCN(c4ccccn4)CC3)C2)c2nn(-c3ccccc3)c(C)c12 (stereo not drawn) | 109.2 | -1.5 | / | /
CC(Oc1ccccc1F)C(=O)Oc1cccc(-n2cnnn2)c1 (stereo not drawn) | 101.0 | -16.6 | / | /
COc1ccc(-c2c(C#N)c(SCC(N)=O)nc(C)c2C(=O)Nc2ccccc2)cc1 | 108.9 | 18.6 | / | /
COc1cc([C@@H]2c3cc4c(cc3[C@H](O)C3COC(=O)[C@@H]32)OCO4)cc(OC)c1OC (stereo partly drawn) | 94.6 | -30.5 | / | /
COc1ccccc1NC(=O)c1ccccc1NC(=O)c1ccccc1 | 102.8 | -21.5 | 90.3 | 85.8
Cc1ccc(-n2nc3ccc(NC(=O)c4oc5ccc(C)cc5c4C)cc3n2)cc1 | 101.2 | -42.6 | 88.3 | 83.6
CCOC(=O)C1CCCN(C(=O)Nc2ccccc2)C1 (stereo not drawn) | 104.3 | 0.9 | 93.0 | 93.5
COC(=O)CSc1ccc2nnc(-c3cccnc3)n2n1 | 108.1 | 11.6 | 99.1 | 92.0
Cc1ccc(OCCSc2nc3ccc(NC(=O)c4cccs4)cc3s2)cc1 | 96.3 | 5.0 | 103.2 | 92.8
Cc1ccc(-n2ncc3c(=O)[nH]c(SCc4ccccc4F)nc32)cc1C | 98.2 | -39.3 | 94.2 | 88.2
COCCn1c(SC)nnc1-c1ccccc1 | 108.3 | -1.9 | 89.9 | 71.4

A second format for six compounds above.
The line under a structure holds: GIV Gai3 FP, HCMV NEC inh, Sa growth inh, Sa growth inh second temp
COc1ccccc1NC(=O)c1ccccc1NC(=O)c1ccccc1
 : 102.8, -21.5, 90.3, 85.8
FC(F)(F)c1ccccc1-n1nnnc1-c1ccc(Cl)cc1Cl
 : 104.0, 1.4, 105.0, 98.4
CC(C)(C)C(=O)/C=C(/N)c1ccncc1
 : 100.2, -37.1, 99.1, 95.1
Cc1ccc(NC(=O)c2cc(C)oc2C)c(Br)c1
 : /, -12.6, 101.0, 92.9
COC(=O)CN(C)S(=O)(=O)c1ccc(Br)cc1
 : 106.0, 12.2, 93.8, 104.8
Cc1nnc(N2CCCC(C(=O)N3CCN(c4ccccn4)CC3)C2)c2nn(-c3ccccc3)c(C)c12 (stereo not drawn)
 : 109.2, -1.5, /, /

The listing continues.
SMILES | GIV Gai3 FP | HCMV NEC inh | Sa growth inh | Sa growth inh second temp
COc1ccc(-c2cc3c(=O)[nH]nc(SCC(=O)Nc4ccc(C)cc4)n3n2)cc1 | 101.5 | -22.6 | / | /
CCOc1ccccc1NCC(=O)Nc1cc(C)ccc1Cl | / | -28.0 | 102.3 | 85.2
Cc1ccc(-c2cc(C(F)(F)F)n3ncc(-c4ccc(Cl)cc4)c3n2)cc1 | 109.6 | -13.2 | 97.3 | 96.1
Cc1ccccc1C(=O)c1cccn1CC(=O)NC1CCCCCC1 | 105.7 | 4.8 | 91.8 | 83.6
COC(=O)c1cc2c(cc1NC(=O)C1CCCN(c3nc4cccnc4s3)C1)OCO2 (stereo not drawn) | 105.1 | -23.7 | / | /
Cc1ccc(C2=CC(c3ccc(C)cc3)n3nc(NS(=O)(=O)c4ccc(C)cc4)nc3N2)cc1 (stereo not drawn) | 138.0 | -42.8 | / | /
O=C(C1CCCO1)N1CCCN(c2ccc(=O)n(-c3ccccc3)n2)CC1 (stereo not drawn) | 98.4 | -46.7 | / | /
Cc1ccc(Cc2ccc(=O)[nH]n2)cc1 | 99.9 | -14.5 | / | /
CC(C)CN(CC(C)C)S(=O)(=O)N1CCC(C(=O)NCc2cccnc2)CC1 | 99.2 | -21.4 | 95.7 | 87.7
N#Cc1ccc(NC(=O)c2ccco2)cc1 | 104.4 | -16.0 | 104.6 | 81.7
Cc1ccc(Cl)cc1N1CCN(S(=O)(=O)c2ccc3[nH]c4c(c3c2)CCCC4)CC1 | 104.2 | / | 101.8 | 102.5
CN(C)c1nnnn1-c1ccccc1 | 109.3 | 2.3 | / | /
O=c1/c(=C/c2cc(-c3ccccc3)n(-c3ccc([N+](=O)[O-])cc3)c2-c2ccccc2)sc2nc3ccccc3n12 | 109.9 | -11.6 | / | /
Cc1cc(Br)ccc1SCC(=O)OCC(=O)Nc1cc(F)ccc1F | / | -5.3 | 102.3 | 98.3
CCOc1ccc(Nc2c(S(=O)(=O)c3ccc(C)cc3)cnc3cc(OC)c(OC)cc23)cc1 | 103.3 | -17.8 | 101.8 | 78.4
Cc1cnc(C(=O)Nc2cccc3ncccc23)cn1 | 101.2 | -70.2 | 100.8 | 85.5
CCOc1cccc(/C=N/NC(=O)c2cc(-c3cccn3C)n[nH]2)c1O | 99.4 | -40.3 | 68.2 | 65.3
CCOC(=O)c1ccc(NC(=O)c2sc(NC(=O)c3ccc(OC)cc3)c(C(=O)OCC)c2C)cc1 | 97.4 | -27.0 | / | /
COc1ccccc1N1CCN(C(=O)c2cc3c(=O)n(C)c4ccccc4c3s2)CC1 | 102.5 | -0.8 | 99.3 | 79.3
CC(C)NC(=O)CNC(=O)C1(C)Cn2c(cc3ccccc32)C(=O)N1C (stereo not drawn) | 104.3 | -21.5 | / | /
CCN(c1ncnc2c1cnn2-c1ccc(C)cc1)C1CCCCC1 | 103.4 | / | 96.2 | 86.3
CC1CCCCC1NC(=O)c1cc2c(s1)CSC2 (stereo not drawn) | 103.9 | / | 111.3 | 67.5
CN1CCc2c(n(CC(O)CNC3CCCC3)c3ccccc23)C1=O (stereo not drawn) | 102.2 | -4.3 | 95.4 | 85.6
Cc1ccccc1NC(=O)Nc1ccc(OCc2ccccc2)cc1 | / | -14.1 | 90.2 | 79.7

GIV Gai3 FP: entries above that show a hit
compound,GIV Gai3 FP,Sa growth inh second temp
Cn1c(/N=C/c2c(O)ccc3ccccc23)nc2ccc(Br)cc21,23.3*,98.5
CN(C)c1ccc(/C=C2/C(=O)c3ccc(C(=O)O)cc3C2=O)cc1,-72.6*,90.3
